# Screening data from PubChem.
# STAT3 SMM – STAT3 (human) binding; P40763; Small molecule microarray, His-STAT3 binding, anti-His fluorescence; calls only; 0.2% of 17,000 active;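 active means compounds whose four printed spots each show fluorescence over background unusually high for their array block, chance value under 7%; compounds were printed on slides so no solution concentration is given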;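 further: about 2 pmol printed per array spot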
# Target sequence (P40763 whole entry, looked up): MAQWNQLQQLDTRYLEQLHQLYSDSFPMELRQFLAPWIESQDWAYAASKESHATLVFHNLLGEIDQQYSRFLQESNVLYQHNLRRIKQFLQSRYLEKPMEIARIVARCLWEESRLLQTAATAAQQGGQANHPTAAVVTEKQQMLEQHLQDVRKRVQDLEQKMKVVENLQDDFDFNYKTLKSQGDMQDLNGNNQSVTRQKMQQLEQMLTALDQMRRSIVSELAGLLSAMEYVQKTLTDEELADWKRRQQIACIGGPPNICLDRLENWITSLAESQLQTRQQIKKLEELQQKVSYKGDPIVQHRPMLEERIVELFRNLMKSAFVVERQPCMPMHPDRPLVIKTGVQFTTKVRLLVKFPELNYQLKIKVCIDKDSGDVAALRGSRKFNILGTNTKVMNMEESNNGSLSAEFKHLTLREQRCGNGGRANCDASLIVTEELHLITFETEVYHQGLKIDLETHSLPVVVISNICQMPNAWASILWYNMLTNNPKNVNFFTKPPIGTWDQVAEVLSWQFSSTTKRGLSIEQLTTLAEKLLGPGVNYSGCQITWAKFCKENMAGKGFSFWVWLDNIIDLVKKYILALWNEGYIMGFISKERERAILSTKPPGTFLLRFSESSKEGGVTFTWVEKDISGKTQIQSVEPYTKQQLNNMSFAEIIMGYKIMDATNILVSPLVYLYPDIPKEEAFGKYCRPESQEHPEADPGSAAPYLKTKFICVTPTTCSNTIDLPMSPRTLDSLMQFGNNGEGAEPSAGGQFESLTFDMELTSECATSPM
# mut p53 SMM – mutant p53 (human) binding; small molecule microarray binding, anti-GST fluorescence; calls only; 0.4% of 17,000 active;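 active means compounds whose four printed spots each glow above background more than chance allows, each with a p-value under 7%; compounds were printed on slides so no solution concentration is given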;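 further: about 2 pmol printed per array spot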
# c-Myc SMM – binders of human c-Myc | P01106 | small molecule microarray, His-c-Myc binding, anti-His fluorescence | calls only | 1.5% of 17,000 active | AID 624141;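 active means spot fluorescence over background with P-value below 7% in all four replicate spots, showing protein binding; compounds were printed on slides so no solution concentration is given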;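 further: score is binary with 100 for all four spots passing and 0 otherwise; about 2 pmol printed per array spot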
# ID4 binder – binders of human ID4 protein; P47928; small molecule microarray, Flag-ID4 binding, fluorescence F/B; calls only; 1.2% of 31,000 active; AID 624137;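 active means spot signal over background at p below 0.07 in all four prints; compounds were printed on slides so no solution concentration is given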;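 further: a binder raises fluorescence above local background on the spot; about 2 pmol printed per array spot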
# Target sequence (P47928 whole entry, looked up): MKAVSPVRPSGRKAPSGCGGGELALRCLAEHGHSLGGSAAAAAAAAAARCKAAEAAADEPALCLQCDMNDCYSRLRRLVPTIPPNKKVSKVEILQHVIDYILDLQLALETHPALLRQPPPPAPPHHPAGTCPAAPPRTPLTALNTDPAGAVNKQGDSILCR
# Calls only; i = inactive; nt = no result given; + = active, no number. This is a subset, so the mix of outcomes need not match the whole.
# Fields – STAT3 SMM, mut p53 SMM, c-Myc SMM, ID4 binder
CCCN(C)C[C@@H]1Oc2ncc(-c3ccccc3)cc2C(=O)N([C@H](C)CO)C[C@@H]1C
    i, i, i, i
Cc1ccc2nsnc2c1S(=O)(=O)NC(C)c1ccccc1 (stereo unspecified)
    i, i, i, i
COc1ccc(NC(=O)CS(=O)(=O)c2ccc3ccccc3c2)cc1
    i, i, i, i
CC(C)NC(=O)N(C)C[C@@H]1OCCCC[C@@H](C)Oc2ccc(NS(C)(=O)=O)cc2C(=O)N([C@H](C)CO)C[C@H]1C
    i, i, i, i
C[C@H](CO)N1C[C@H](C)[C@H](CN(C)C(=O)NC2CCCCC2)Oc2ccc(NC(=O)NC3CCCCC3)cc2CC1=O
    i, i, i, i
COC(=O)C1=C[C@H](O[C@@H]2O[C@H](CO)[C@@H](O)[C@H](O)[C@H]2O)C[C@H]2[C@]3(C)C[C@@H](c4ccoc4)OC(=O)[C@H]3CC[C@@]12C
    i, i, i, nt
O=C(COc1ccc2ccccc2c1)Nc1ccccc1C(=O)Nc1ccccc1
    i, i, i, i
CCC(C(=O)Nc1ccccc1C(=O)N1CCCC1)N1C(=O)c2ccccc2C1=O (stereo unspecified)
    i, i, i, i
COc1ccc(-c2nnc(SCC(=O)O)n2C)cc1OC
    i, i, i, i
CC(C)NC(=O)Nc1ccc2c(c1)C(=O)N([C@H](C)CO)C[C@H](C)[C@H](CN(C)C(=O)Cc1ccccc1)OCCCC[C@H](C)O2
    i, i, i, i
COc1ccc(S(=O)(=O)NCCO)cc1-c1nnc2c3ccccc3c(C)nn12
    i, i, i, i
C[C@@H]1CN([C@@H](C)CO)C(=O)c2cccc(NC(=O)Nc3ccc(F)cc3)c2O[C@H]1CN(C)C(=O)NC1CCCCC1
    i, i, i, i
O=C(NCC1CCCO1)c1ccc(NC(=O)c2cc(-n3cnnc3)ccc2Cl)cc1 (stereo unspecified)
    i, i, i, i
O=C(Nc1sc2c(c1C(=O)NCc1ccco1)CCC2)c1sc2ccccc2c1Cl
    i, i, +, i
C[C@@H]1O[C@@H](O[C@H]2[C@H](O[C@H]3[C@H](O)[C@@H](C(=O)O)O[C@@H](O[C@H]4CC[C@@]5(C)C(CC[C@]6(C)C5CC[C@]57OC[C@@]8(CCC(C)(C)CC85)[C@H](O)C[C@]76C)C4(C)C)[C@@H]3O[C@@H]3O[C@H](CO)[C@@H](O[C@@H]4OC[C@@H](O)[C@H](O)[C@H]4O)[C@H](O)[C@H]3O)O[C@H](CO)[C@H](O)[C@@H]2O)[C@H](O)[C@H](O)[C@H]1O (stereo partly specified)
    i, i, +, i
CCC1(C)Cc2c(sc3nnn(CC(=O)N(c4ccccc4)c4ccccc4)c(=O)c23)CO1 (stereo unspecified)
    i, i, i, i
CC(C)NC(=O)Nc1ccc2c(c1)C(=O)N([C@@H](C)CO)C[C@@H](C)[C@@H](CN(C)C)O2
    i, i, i, nt
COc1ccc(CN(C)C[C@H]2Oc3c(NC(=O)c4ccncc4)cccc3C(=O)N([C@H](C)CO)C[C@@H]2C)cc1
    i, i, i, i
C#Cc1ccc([C@H]2C=C(C(=O)N3CCOCC3)O[C@@H](OCc3ccc(CO)cc3)C2)cc1
    i, i, i, i
COc1ccc(S(=O)(=O)Nc2ccc3c(c2)C(=O)N([C@H](C)CO)C[C@@H](C)[C@H](CN(C)C(=O)c2ccccc2)OCCCC[C@@H](C)O3)cc1
    i, i, i, nt
C[C@@H]1CN([C@H](C)CO)C(=O)c2cc(NC(=O)C3CCCCC3)ccc2O[C@H]1CN(C)C(=O)Nc1ccc(F)cc1
    i, i, i, nt
C[C@H](CO)N1C[C@H](C)[C@H](CN(C)C(=O)NC2CCCCC2)Oc2ccc(NC(=O)CCC(F)(F)F)cc2C1=O
    i, i, i, nt
C[C@H](CO)N1C[C@H](C)[C@H](CN(C)C(=O)NC2CCCCC2)OCCCC[C@H](C)Oc2ccc(NS(C)(=O)=O)cc2C1=O
    i, i, i, nt
CCN(CC(=O)Nc1ccccc1)S(=O)(=O)c1ccc(OC)cc1
    i, i, i, i
Cc1ccc2oc3c(c(=O)c2c1)C(c1ccc(OCC(N)=O)cc1)N(c1nc(C)c(C)s1)C3=O (stereo unspecified)
    i, i, i, i
COc1ccc(-c2nc(Nc3nc(C)cc(C)n3)n[nH]2)cc1OC
    i, i, i, +
CC(C)(C)NC(=O)C(OC(=O)c1ccccc1)c1ccco1 (stereo unspecified)
    i, i, i, i
Fc1ccccc1-c1nnc(SCc2ccc(Br)cc2)n1Cc1ccco1
    i, i, i, i
C[C@H]1CN([C@@H](C)CO)C(=O)Cc2cc(NC(=O)c3ccncc3)ccc2O[C@@H]1CN(C)C(=O)Nc1ccccc1
    i, i, i, i
C[C@@H]1CN([C@@H](C)CO)C(=O)Cc2cc(N(C)C)ccc2O[C@@H]1CN(C)Cc1ccncc1
    i, i, i, i
C[C@H](CO)N1C[C@H](C)[C@H](CN(C)S(=O)(=O)c2ccc(Cl)cc2)Oc2c(NS(=O)(=O)c3cccs3)cccc2C1=O
    i, i, i, i
COc1ccc(C#Cc2ccc3c(c2)[C@]2(C(=O)N3)[C@H](C(=O)N3CCc4cc(OC)c(OC)cc4C3)[C@H]3C(=O)O[C@H](c4ccccc4)[C@H](c4ccccc4)N3[C@@H]2c2ccccc2OCCO)cc1
    i, i, i, i
C[C@@H]1CCCCO[C@H](CN(C)C(=O)c2ccncc2)[C@H](C)CN([C@H](C)CO)C(=O)c2cc(NC(=O)CCC(F)(F)F)ccc2O1
    i, i, i, i
CCO[C@H]1OC(C(=O)O)=C[C@@H](c2csc3ccccc23)[C@@H]1CCCO
    i, i, i, i
COc1ccc(S(=O)(=O)Nc2ccc3c(c2)CC(=O)N([C@@H](C)CO)C[C@H](C)[C@H](CN(C)C)O3)cc1
    i, i, i, i
C[C@@H]1CN([C@H](C)CO)C(=O)c2cc(NC(=O)Nc3ccc(F)cc3)ccc2O[C@H]1CN(C)S(=O)(=O)c1cn(C)cn1
    i, i, i, i
O=C(Nc1c(C(=O)NCc2ccco2)cnn1-c1ccccc1)c1cccc(F)c1
    i, i, i, i
CC(=O)c1c(O)cc(O[C@@H]2O[C@H](CO)[C@@H](O)[C@H](O)[C@H]2O)cc1O
    i, i, i, nt
C[C@@H]1CN([C@H](C)CO)C(=O)Cc2cc(NS(=O)(=O)c3ccccc3)ccc2O[C@@H]1CN(C)Cc1ccc2c(c1)OCO2
    i, i, i, i
Cc1noc(C)c1NC(=O)N(C)C[C@H]1OCCCC[C@H](C)Oc2ccc(NC(=O)c3ccncc3)cc2C(=O)N([C@@H](C)CO)C[C@@H]1C
    i, i, i, i

# Next part; the last 2 above are carried over.
# Fields – STAT3 SMM, mut p53 SMM, c-Myc SMM, ID4 binder
C[C@@H]1CN([C@H](C)CO)C(=O)Cc2cc(NS(=O)(=O)c3ccccc3)ccc2O[C@@H]1CN(C)Cc1ccc2c(c1)OCO2
    i, i, i, i
Cc1noc(C)c1NC(=O)N(C)C[C@H]1OCCCC[C@H](C)Oc2ccc(NC(=O)c3ccncc3)cc2C(=O)N([C@@H](C)CO)C[C@@H]1C
    i, i, i, i
COc1ccc(S(=O)(=O)N(C)C[C@H]2Oc3c(NS(C)(=O)=O)cccc3C(=O)N([C@@H](C)CO)C[C@H]2C)cc1
    i, i, i, i
C[C@@H]1CN([C@H](C)CO)C(=O)Cc2cc(NC(=O)C3CC3)ccc2O[C@@H]1CN(C)S(=O)(=O)c1cn(C)cn1
    i, i, i, i
COc1ccc(S(=O)(=O)N(C)C[C@H]2Oc3c(NC(=O)NC4CCCCC4)cccc3C(=O)N([C@H](C)CO)C[C@@H]2C)cc1
    i, i, i, i
C[C@@H]1CN([C@@H](C)CO)C(=O)c2cc(NC(=O)Nc3ccc(F)cc3)ccc2O[C@@H](C)CCCCO[C@H]1CN(C)Cc1ccc(C(=O)O)cc1
    i, i, i, i
CCn1cc(C(C)NC(=S)Nc2ccc(OC)cc2OC)c(C)n1 (stereo unspecified)
    i, i, i, i
CCCCCC1OC2=C(C(=O)N(OC)C2CSCC(O)C(=O)O)C(O)C1(C)O (stereo unspecified)
    i, i, i, i
COc1ccc(CCNc2nc(-c3cccc(NC(C)=O)c3)cs2)cc1OC
    i, i, i, i
COc1ccc(C#Cc2cnc3c(c2)C(=O)N([C@H](C)CO)C[C@H](C)[C@H](CN(C)C(=O)Nc2c(C)noc2C)O3)cc1OC
    i, i, i, i
C[C@@H]1CCCCO[C@H](CN(C)Cc2ccncc2)[C@@H](C)CN([C@H](C)CO)C(=O)c2cc(NC(=O)c3ccccc3)ccc2O1
    i, i, i, nt
COC(=O)N(C)C[C@H]1OCc2cnnn2CCCC(=O)N([C@@H](C)CO)C[C@H]1C
    i, i, i, i
C[C@@H]1CN([C@H](C)CO)C(=O)c2cccc(NC(=O)c3cnccn3)c2O[C@@H]1CN(C)C(=O)NC1CCCCC1
    i, i, i, i
COC(=O)CNS(=O)(=O)c1ccccc1[N+](=O)[O-]
    i, i, i, i
CC(=O)n1nc(-c2ccc(Cl)cc2)nc1NCc1ccco1
    i, i, i, i
CN(CC(=O)Nc1ccccc1[N+](=O)[O-])S(=O)(=O)c1ccccc1
    i, i, i, i
C[C@H](CO)N1C[C@H](C)[C@H](CN(C)C(=O)NC2CCCCC2)Oc2c(NC(=O)Nc3ccccc3)cccc2C1=O
    i, i, i, i
C[C@@H]1CN([C@H](C)CO)C(=O)c2cc(NS(C)(=O)=O)ccc2O[C@@H]1CN(C)C(=O)Nc1ccc(F)cc1
    i, i, i, i
C[C@H]1C=C(C(=O)NCc2nc3ccccc3[nH]2)O[C@@H](OCc2ccc(CO)cc2)C1
    i, i, i, nt
C[C@H](CO)N1C[C@H](C)[C@@H](CN(C)S(=O)(=O)c2cn(C)cn2)OCc2cn(nn2)CCCC1=O
    i, i, i, i
COc1ccc(NC(=O)Nc2cccc3c2O[C@H](CN(C)S(=O)(=O)c2cccs2)[C@H](C)CN([C@H](C)CO)C3=O)cc1
    i, i, i, i
COc1ccc(/C=C/C=O)cc1
    i, i, i, i
CCOC(=O)c1sc(NC(=S)Nc2ccc3c(c2)OCCO3)c(C(=O)OCC)c1C
    i, i, i, i
CN1C(=O)CC(n2c(CO)nc3ccccc32)C1=O (stereo unspecified)
    i, i, i, i
COc1ccc(S(=O)(=O)N(C)C[C@H]2Oc3ccc(NC(=O)Cc4ccccc4)cc3CC(=O)N([C@H](C)CO)C[C@@H]2C)cc1
    i, i, i, i
COc1ccc(NC(=O)Nc2ccc3c(c2)C(=O)N([C@H](C)CO)C[C@H](C)[C@@H](CN(C)S(C)(=O)=O)O3)cc1
    i, i, i, i
Cc1noc(C)c1S(=O)(=O)Nc1ccc2c(c1)C(=O)N([C@@H](C)CO)C[C@H](C)[C@@H](CN(C)C(=O)Nc1ccccc1)O2
    i, i, i, i
COc1ccc(OC)c(NC(=O)CSc2nc(C)cc(C)n2)c1
    i, i, i, i
Cc1cccc(C#Cc2ccccc2)n1
    i, i, i, i
C[C@H]1CN([C@@H](C)CO)C(=O)c2cccc(NC(=O)c3cnccn3)c2O[C@H]1CN(C)C(=O)Nc1ccccc1
    i, i, i, i
Cc1nc(-c2ccccc2O)n(CCN2CCOCC2)n1
    i, i, i, i
C[C@@H]1CCCCO[C@H](CN(C)CC2CC2)[C@H](C)CN([C@@H](C)CO)C(=O)c2cc(NC(=O)Nc3ccccc3)ccc2O1
    i, i, i, i

# Complete entries, quoted from the list. Order of values: STAT3 SMM, mut p53 SMM, c-Myc SMM, ID4 binder
# O=C(NCC1CCCO1)c1ccc(NC(=O)c2cc(-n3cnnc3)ccc2Cl)cc1 (stereo unspecified) across the screens: i, i, i, i
# COc1ccc(C#Cc2cnc3c(c2)C(=O)N([C@H](C)CO)C[C@H](C)[C@H](CN(C)C(=O)Nc2c(C)noc2C)O3)cc1OC across the screens: i, i, i, i
# COc1ccc(NC(=O)Nc2cccc3c2O[C@H](CN(C)S(=O)(=O)c2cccs2)[C@H](C)CN([C@H](C)CO)C3=O)cc1 across the screens: i, i, i, i

# The listing continues:
# Fields – STAT3 SMM, mut p53 SMM, c-Myc SMM, ID4 binder
C/C1=C/CC/C(CO)=C\[C@H]2OC(=O)C(CN3CCCC3C(=O)O)[C@@H]2[C@@H](OC(=O)C(C)CO)C1 (stereo partly specified)
    i, i, i, nt
CC1OC(OCC2OC(Oc3c(-c4ccc(O)c(O)c4)oc4cc(O)cc(O)c4c3=O)C(O)C(O)C2O)C(O)C(O)C1O (stereo unspecified)
    i, i, i, i
CS(=O)(=O)N(CC(=O)NC1CC2CCC1C2)c1cc(Cl)cc(Cl)c1 (stereo unspecified)
    i, i, i, i
COc1ccc(C)cc1NC(=O)NCc1ccco1
    i, i, i, i
C[C@@H]1CCCCO[C@@H](CN(C)Cc2ccncc2)[C@@H](C)CN([C@@H](C)CO)C(=O)c2cc(NS(=O)(=O)c3ccccc3)ccc2O1
    i, i, i, i
C[C@@H]1CN([C@@H](C)CO)C(=O)c2cc(N(C)C)ccc2O[C@H]1CN(C)CC1CCCCC1
    i, i, i, i
O=C1O[C@H](c2ccccc2)[C@H](c2ccccc2)N2[C@H]1[C@@H](C(=O)NC[C@H](O)c1ccccc1)[C@]1(C(=O)Nc3ccccc31)[C@H]2c1ccc(OCCO)cc1
    i, i, i, i
